HSV replic up: enhancers of HSV replication in host cells, fold increase, host cell viability. HSV replication augmentation in cells. maximum fold increase. hit rate 0.005% among 220,000;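 active = peak rise of 1.5-fold or more in the series; tested in PC3 cells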;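 note: first round at 10 µM; read as green reporter fluorescence; hits show the peak of a series up to 25 µM; 1 = signal of infected wells without compound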
RGS16-Gao HTS: modulators of RGS16 binding to Galphao, primary screen, biochemical, human proteins, multiplexed bead flow cytometry; Regulator of G-protein signaling 16 (Homo sapiens) + Guanine nucleotide-binding protein …; bead-based flow cytometry RGS16-Galphao binding, fluorescence; actives lie on both sides; binding response (% of control), % at 10 µM; hit rate 0.38% among 220,000;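 active = below 25% or above 175%, edge rows of some plates excepted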;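 note: Galphao activated by GDP with aluminum fluoride before binding; 100% = wells without compound and 0% = beads without RGS; some results beyond the cut were filed as inactive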
Target sequence (O15492 whole entry, looked up): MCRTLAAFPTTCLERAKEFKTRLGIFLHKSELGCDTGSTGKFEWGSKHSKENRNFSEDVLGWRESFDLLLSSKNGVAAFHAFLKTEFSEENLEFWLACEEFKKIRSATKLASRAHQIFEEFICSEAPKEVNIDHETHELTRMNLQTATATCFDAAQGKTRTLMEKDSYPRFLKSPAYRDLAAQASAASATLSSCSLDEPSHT
Target sequence (P09471 whole entry, looked up): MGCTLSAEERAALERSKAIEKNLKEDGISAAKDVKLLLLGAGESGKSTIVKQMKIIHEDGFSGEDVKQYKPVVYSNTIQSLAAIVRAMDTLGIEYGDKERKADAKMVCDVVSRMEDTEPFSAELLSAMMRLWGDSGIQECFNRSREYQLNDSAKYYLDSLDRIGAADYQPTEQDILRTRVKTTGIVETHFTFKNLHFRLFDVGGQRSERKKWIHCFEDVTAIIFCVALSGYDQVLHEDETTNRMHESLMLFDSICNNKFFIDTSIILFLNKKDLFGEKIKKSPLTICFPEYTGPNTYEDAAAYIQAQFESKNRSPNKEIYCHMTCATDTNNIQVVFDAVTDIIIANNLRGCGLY
GALR2 ag: GALR2 receptor agonists, primary screen, cell-based | Galanin receptor type 2 (Homo sapiens), O43603 | GALR2-expressing cells, agonist activation read-out | activation, %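 (tested at 5 µM)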 | hit rate 0.48% among 140,000 | AID 803, 2007;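 active = above mean plus 3 SD of all compounds, about 5% in these data, not always enough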;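 note: 0% = vehicle buffer wells and 100% = reference agonist at full effect; tested in CHO reporter cells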
Target sequence (O43603 whole entry, looked up): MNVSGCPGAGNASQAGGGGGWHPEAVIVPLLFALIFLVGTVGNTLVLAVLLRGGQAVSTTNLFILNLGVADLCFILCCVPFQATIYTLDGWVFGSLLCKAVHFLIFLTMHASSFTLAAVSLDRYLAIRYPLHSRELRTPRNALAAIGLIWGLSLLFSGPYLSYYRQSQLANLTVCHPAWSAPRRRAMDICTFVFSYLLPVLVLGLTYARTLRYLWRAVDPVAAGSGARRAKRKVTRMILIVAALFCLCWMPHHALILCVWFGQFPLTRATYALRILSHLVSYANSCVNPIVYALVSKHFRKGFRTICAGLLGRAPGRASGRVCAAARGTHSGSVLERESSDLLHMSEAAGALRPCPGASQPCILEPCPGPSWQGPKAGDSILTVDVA
PKD1 inh: inhibitors of human PKD1 kinase, biochemical, fluorescence polarization | Serine/threonine-protein kinase D1 (Homo sapiens), Q15139 | PKD1 kinase fluorescence polarization assay | inhibition, %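 (about 10 µM by stock and volumes)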 | hit rate 0.056% among 200,000 | AID 797, 2007;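 active = inhibition of 50% or more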;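 note: controls were vehicle for no effect and a reference inhibitor for full effect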
Insulin prom inh: inhibitors of insulin promoter-driven GFP, primary screen, imaging, TRM-6 cells (human fetal islet line), eGFP reporter, cell count; hit rate 0.9% among 130,000; reporter expression induced with tamoxifen; AID 1273, 2008; inhibition, % at 2 µM;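 active = inhibition above the mean plus 3 SD, with well images judged a real hit on visual review, cut at about 60% in these data, passing the limit was not always enough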
Insulin prom inh cell count: second read-out of Insulin prom inh, no call of its own (marks repeat the call); normalized cell count, %; measured here: cell count, toxicity; reference of the scale not given here;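 cells exposed to compound for 48 h; stained nuclei by imaging scaled within each plate; lower means fewer cells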
HSV replic up primary fold: second read-out of HSV replic up, no call of its own (marks repeat the call); fold increase; compound at 10 µM; measured here: primary screen fold increase 10 uM; tested in PC3 cells;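 GFP signal in the first replicate; 1 = infected wells without compound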
An asterisk follows results filed as active; i = inactive; x = no result given.

SMILES	HSV replic up	HSV replic up primary fold	RGS16-Gao HTS	GALR2 ag	PKD1 inh	Insulin prom inh	Insulin prom inh cell count
O=C(NCSc1ccnc(SCNC(=O)c2ccccc2)n1)c1ccccc1	x	x	107.9	-2.1	-4.4	12.5	81.2
COc1ccc(N2C(=S)N=C(Nc3ccccc3)C23CCCCC3)cc1	x	x	104.4	x	4.0	7.7	105.4
C/C(=N/Nc1ccc(C(=O)O)cc1)c1ccc(O)c(O)c1O	i	1.01	94.3	0.1	25.6	-3.9	169.0
O=C(Nc1ccc(F)cc1)Oc1ccc[nH]c1=O	i	1.04	100.1	x	x	x	x
CCOc1ccc(Oc2nc(Nc3ccc(C)cc3)nc(N(C)C)n2)nn1	i	1.1	105.6	-1.1	-2.9	-2.9	83.2
Cn1cc([N+](=O)[O-])c(C(=O)N/N=C/c2ccc3c(c2)OCO3)n1	i	1.01	98.8	x	2.4	77.8*	49.9*
O=C(OCCNc1ccc(C(F)(F)F)cc1[N+](=O)[O-])c1cc2ccccc2oc1=O	i	1.03	98.2	x	x	x	x
CC(=O)OC(c1nc2ccccc2c(=O)n1C1CC2(OC1=O)c1ccccc1N1C(=O)C(C)(C)N(O)C12)C(C)C (stereo unspecified)	i	0.85	90.7	x	x	x	x
OC[C@@H](O)[C@@H](O[C@H]1O[C@H](CO)[C@@H](O)[C@H](O)[C@H]1O)[C@H](O)[C@@H](O)CO	i	0.81	92.5	x	x	x	x
Cc1sc2ncnc(Nc3ccc(N4CCOCC4)cc3)c2c1-c1ccccc1	i	0.99	98.7	0.2	10.4	44.1	108.2
Cc1ccccc1C(=O)Nc1sc2c(c1C(=O)O)CCC2	i	1.03	98.7	x	8.8	x	x
CS/C(=N\S(=O)(=O)c1cccs1)Nc1ccc(F)c(Cl)c1	i	0.9	101.3	-2.4	-9.3	-26.5	147.9
CCCc1cc(=O)n2[nH]cnc2n1	i	0.99	83.4	-1.2	-6.8	29.7	66.2
O=C(O)CC/C(=N\Nc1ccc(S(=O)(=O)N2CCOCC2)cc1[N+](=O)[O-])c1cccs1	i	0.94	104.9	x	x	x	x
CCCc1nn(C)c(C(=O)Nc2cccc(CC)c2)c1Cl	i	0.9	106.7	-0.1	10.3	x	x

A second format for 2 compounds above.
CCOc1ccc(Oc2nc(Nc3ccc(C)cc3)nc(N(C)C)n2)nn1
  HSV replic up: i
  HSV replic up primary fold: 1.1
  RGS16-Gao HTS: 105.6
  GALR2 ag: -1.1
  PKD1 inh: -2.9
  Insulin prom inh: -2.9
  Insulin prom inh cell count: 83.2

Cn1cc([N+](=O)[O-])c(C(=O)N/N=C/c2ccc3c(c2)OCO3)n1
  HSV replic up: i
  HSV replic up primary fold: 1.01
  RGS16-Gao HTS: 98.8
  GALR2 ag: x
  PKD1 inh: 2.4
  Insulin prom inh: 77.8*
  Insulin prom inh cell count: 49.9*

Next part:
SMILES	HSV replic up	HSV replic up primary fold	RGS16-Gao HTS	GALR2 ag	PKD1 inh	Insulin prom inh	Insulin prom inh cell count
Cc1ccc(C(=O)NCC(=O)Nc2cccc(C(F)(F)F)c2)cc1	i	0.9	100.5	-0.8	19.5	x	x
Cc1onc(-c2c(Cl)cccc2Cl)c1C(N)=S	i	1.01	102.7	x	-3.3	0.0	131.5
Cc1ccc(S(=O)(=O)NN2C(=O)c3ccccc3NC2c2cccc(O)c2)cc1 (stereo unspecified)	i	0.94	107.0	x	-4.5	-16.7	147.7
O=C(COc1ccc(Br)cc1)N(Cc1ccccc1)c1ccccn1	i	0.96	104.0	-0.6	8.3	7.4	112.5
O=C(CSc1ccccn1)c1ccc2c(c1)OCO2	i	0.69	101.9	-0.6	-4.5	x	x
O=C(c1cccnc1)N1CCN(Cc2ccc3c(c2)OCO3)CC1	i	0.99	100.3	1.7	4.0	-22.2	144.6
Cc1ccc(S(=O)(=O)NC2(C(F)(F)F)NC(=O)N(C)C2=O)cc1 (stereo unspecified)	i	0.82	43.9	-1.5	5.7	62.8	146.7
Cc1ccc(S(=O)(=O)N2CCN(C(C)C(=O)Nc3ccccc3-c3ccccc3)CC2)cc1 (stereo unspecified)	i	0.95	90.4	-1.3	1.7	-22.1	117.0
COc1ccc(-c2nc(C#N)c(NC(C)c3ccccc3)o2)cc1OC (stereo unspecified)	x	x	105.5	0.6	-10.9	x	x
Nn1cc(-c2ccccc2)nc1SCC(=O)N1CCN(S(=O)(=O)c2ccc3ccccc3c2)CC1	i	0.92	105.2	-1.7	-5.5	34.5	110.7
COCC(C)n1c(C)cc(C(=O)COC(=O)c2c(C)nn(-c3ccccc3)c2C)c1C (stereo unspecified)	i	0.917	98.8	-1.3	-11.9	x	x
CC(C)(C)NC(=O)C(c1ccccn1)N(C(=O)c1csnn1)C1CCCCC1 (stereo unspecified)	i	0.97	98.7	x	1.3	x	x
Cn1ccc(-c2ccccc2)c(C#N)c1=O	i	0.92	95.8	x	-8.1	-66.7	81.3
Cc1ccc2nc(SCC(=O)NC3CCCc4ccccc43)[nH]c2c1 (stereo unspecified)	x	x	102.7	-2.6	4.5	x	x
COc1cccc(Nc2nc(CN3CCOCC3)nc3sc4c(c23)CCCC4)c1	i	1.12	97.1	0.7	2.0	-11.1	91.8

Seven of the entries above in order of their number in PKD1 inh, low to high:
| Structure | PKD1 inh |
| --- | --- |
| O=C(CSc1ccccn1)c1ccc2c(c1)OCO2 | -4.5 |
| Cc1onc(-c2c(Cl)cccc2Cl)c1C(N)=S | -3.3 |
| CC(C)(C)NC(=O)C(c1ccccn1)N(C(=O)c1csnn1)C1CCCCC1 (stereo unspecified) | 1.3 |
| COc1cccc(Nc2nc(CN3CCOCC3)nc3sc4c(c23)CCCC4)c1 | 2.0 |
| O=C(c1cccnc1)N1CCN(Cc2ccc3c(c2)OCO3)CC1 | 4.0 |
| Cc1ccc2nc(SCC(=O)NC3CCCc4ccccc43)[nH]c2c1 (stereo unspecified) | 4.5 |
| O=C(COc1ccc(Br)cc1)N(Cc1ccccc1)c1ccccn1 | 8.3 |

Following part:
SMILES	HSV replic up	HSV replic up primary fold	RGS16-Gao HTS	GALR2 ag	PKD1 inh	Insulin prom inh	Insulin prom inh cell count
CC1(C(=O)OCC(=O)c2c[nH]c3ccccc23)CC1(Cl)Cl (stereo unspecified)	x	x	102.0	-1.5	7.6	17.1	75.0
O=c1[nH]c(N2CCOCC2)nc2c1CCCC2	i	0.66	102.8	-0.3	-1.3	28.6	151.5
Cc1cc(S(=O)(=O)N2CCC(N3CCCCC3)CC2)ccc1-n1cnnn1	i	0.97	63.1	-0.6	-14.3	-33.3	122.8
CCc1nnc(NC(=O)C2CCCN2C(=O)Nc2ccccc2)s1 (stereo unspecified)	i	1.04	97.0	x	6.2	42.1	89.7
C=CCNC(=O)c1sc(=S)n(-c2ccc(C(=O)OCC)cc2)c1N	i	1.33	72.8	-1.1	1.0	x	x
CC(=O)Nc1ccc(OCCOc2ccc(/C=C3/C(=N)N4C=CSC4=NC3=O)cc2)cc1	i	1.01	101.0	x	-5.0	x	x
O=C(NN1CCOCC1)c1ccc(Br)s1	i	0.95	102.5	x	-2.5	x	x
O=S(=O)(c1ccc(S(=O)(=O)N(Cc2ccc(F)cc2)C2CCCC2)cc1)N1CCCC1	i	0.9	91.3	-1.0	-3.0	9.1	89.9
O=C(NC(=S)Nc1ncc(Br)cc1Br)c1cncc(Br)c1	i	0.87	107.5	-0.2	-5.0	-125.0	116.2
CCCN(CCC)S(=O)(=O)c1ccc2c(c1)CCCN2C(C)=O	i	0.96	102.9	-0.8	-8.9	x	x
Cc1nc2sc(C(c3ccc(Cl)cc3)N3CCOCC3)c(O)n2n1 (stereo unspecified)	i	0.973	103.4	-1.6	-2.6	x	x
O=C(NNC(=S)Nc1ccccc1C(F)(F)F)C1CC1	i	1.15	106.9	x	x	x	x
NC(=O)CSc1nnc(C2CC2)n1-c1ccccc1	i	1.03	182.3	0.1	0.2	-64.1	96.4
CN(C)S(=O)(=O)N1CCN(C(=O)N2CCCCC2)CC1	i	0.82	99.4	0.9	-10.6	35.8	94.3
O=C(O)CC(Cc1ccccc1)C(=O)NCC12CC3CC(CC(C3)C1)C2 (stereo unspecified)	i	0.95	102.9	x	7.7	x	x
O=C(Cc1ccccc1)N[C@H](c1ccccc1)P(=O)(O)CO	i	1.06	109.2	-2.6	-2.4	x	x
Cc1ccc(CNc2nc(N)c([N+](=O)[O-])c(NCc3ccccc3)n2)cc1	i	1.08	112.4	-1.1	-0.2	-5.6	54.9
O=C(/C=C/c1ccc([N+](=O)[O-])cc1)NCCOc1ccc(F)cc1	i	0.99	96.4	x	0.1	16.7	52.9
CC(C)(C)c1cc(C(=O)N/N=C/c2ccccn2)n[nH]1	i	0.91	99.3	x	x	x	x
CCOC(=O)C1Cc2c([nH]c3ccccc23)CN1 (stereo unspecified)	i	0.96	101.8	-3.0	-4.0	-13.9	74.7
Cc1cc(C(=O)N/N=C2\CCCC(=O)C2)c2ccccc2n1	i	0.77	96.0	-3.5	-10.4	35.7	128.4
Cc1ccc(Nc2nc(-c3ccncc3)nc3ccccc23)cc1	i	0.94	93.2	x	x	x	x
CCOC(=O)Cn1cnc2sc3c(c2c1=O)CCC3	i	0.92	94.7	-2.2	0.8	2.9	80.1
CC(Sc1nncs1)C(=O)Nc1ccc2c(c1)OCO2 (stereo unspecified)	i	1.16	96.6	x	-2.5	7.1	71.1
O=C(Nc1ccccc1)N1CCCN(c2c(Cl)cncc2Cl)CC1	i	1	110.2	x	x	x	x
O=C(O)COc1ccccc1/C=N/NC(=O)c1ccc(F)cc1	i	1	99.0	x	-2.8	x	x
O=C(c1c(F)cccc1F)N1CCN(c2ccccc2F)CC1	i	1.04	106.4	-3.2	-10.4	7.1	127.0
OC(COc1ccccc1)CN1CCCC1 (stereo unspecified)	i	1	98.2	x	-1.6	18.8	111.0
[O-][N+]12CCN(CC1)c1ccccc12	i	1.12	103.8	-4.3	3.8	41.9	108.5
OCCCNC(=S)Nc1ccc2nc(-c3ccccn3)c(-c3ccccn3)nc2c1	i	0.79	100.0	-2.9	-1.4	-15.4	68.2
Cc1ccc(CCNC(=O)CNC(=S)N(Cc2ccccc2)Cc2cccnc2)cc1	i	0.92	105.4	x	7.5	33.3	153.3
O=c1cc(-c2ccc(O)c(O)c2)oc2cc(O)cc(O)c12	i	1.05	91.0	x	x	x	x
O=C(NCCCN1CCCC1)C1CCC(=O)N1C1CCCCC1 (stereo unspecified)	i	0.99	99.1	-1.9	1.2	-7.7	126.1
Cc1ccc2c3c([nH]c2c1C)-c1nonc1CC3	i	0.973	101.8	-1.7	-5.0	13.3	128.2
NC(=O)NC(CC(=O)NCCc1ccc(S(N)(=O)=O)cc1)c1ccccc1Cl (stereo unspecified)	i	1.08	106.7	x	x	x	x
CCOC(=O)C(C)Oc1cccc2c(=O)n(CC(=O)NCCc3ccccc3)ccc12 (stereo unspecified)	i	1.01	96.3	x	x	x	x
O=C(N/N=C/C1=Cc2ccccc2OC1)c1ccncc1	i	1.2	101.9	x	x	x	x
COc1ccc(-c2csc(Nc3ccc(S(=O)(=O)Nc4cc(C)on4)cc3)n2)cc1C	i	1	91.3	x	6.3	10.0	105.9
O=C(CSc1nnc(CNC(=O)c2cccs2)o1)Nc1ccccc1	x	x	109.4	x	5.5	23.1	95.8
CCCS(=O)(=O)N1CCCC(C(=O)NCCCN(C)c2ccccc2)C1 (stereo unspecified)	i	0.927	92.7	-0.4	-5.4	x	x
O=c1c(-c2nc3ccccc3o2)c2oc3ccccc3n2c2ccccc12	i	0.61	103.6	-1.1	-8.3	-10.3	110.0
C[N+]1(CC(=O)OCCCc2ccccc2)CCCCC1	i	1.01	87.6	x	0.4	-350.0	43.4
O=C(Nc1ccc(Cl)c([N+](=O)[O-])c1)c1cnccn1	i	0.88	37.3	-1.1	-13.7	0.0	58.7
O=Cc1c(N2CCCCC2)nc2ccccn2c1=O	i	1.02	113.2	x	-4.9	0.0	88.3
CCc1ccc(S(=O)(=O)Nc2cc(SCC(=O)O)c(O)c3ccccc23)cc1	i	1	87.8	x	-7.7	x	x
COc1cc(OC)c(C(=O)NCCCn2ccnc2)cc1OC	i	0.91	101.9	x	-5.5	x	x
C/C(=N\NC(=O)C1COc2ccccc2O1)c1cccs1 (stereo unspecified)	i	1.13	96.8	-1.3	-7.1	-26.1	63.6

Compound activity: PubChem BioAssay, several laboratories
